BJeLR viability: BJeLR cell viability loss. BJeLR (HRASV12) viability, CellTiter-Glo ATP luminescence, 48 h; reference of the scale not given here. inhibition, % (no concentration beside the values). actives 0.17% (n = 300,000). AID 1554;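 active = replicate mean above 50%; inconclusive = above 50% but judged a plate artefact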;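 also: 50 nL library stock added to about 25 µL; numbers are from one replicate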
ugtP null kill: compounds lethal to S. aureus RN4220 ugtP deletion mutant. OD600 growth, 16 h; some inactives read as strong as hits. growth inhibition, % (concentration not given with the values). actives 0.54% (n = 330,000). AID 1259309;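 active = z-score under -3 and OD600 up to 0.15 on both plates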;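 also: plate controls were untreated wells for no effect and antibiotic for full effect; wells of about 80 µL received 100 nL stock; the first replicate is given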
RN4220 kill: kills Staphylococcus aureus RN4220; S. aureus RN4220 growth, OD600, 16 h; AID 1259311; actives 0.33% (n = 330,000); inhibition, % (no concentration beside the values);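 active = z-score of -3 or lower and OD600 up to 0.18 on both plates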;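 also: plate controls were untreated cells for no effect and reference antibiotic for full effect; stock transfer was 100 nL into about 80 µL; one replicate is shown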
Mtb hypoxia inh: inhibitors of hypoxia-regulated fluorescent reporter in Mycobacterium tuberculosis; fluorescence inhibition, % (concentration not given with the values); actives 0.1% (n = 300,000); AID 1159583; M. tuberculosis hypoxia-regulated fluorescent reporter, fluorescence;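 active = 35 to 45% if threefold the growth effect, above 45% if 1.5-fold the growth effect; inactive = the rest, general growth blockers included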;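 also: wells of about 50 µL received 100 nL stock; 0% = vehicle wells and 100% = reference inhibitor wells; whole bacteria with a GFP reporter of the hypoxia response; strong numbers were not always called active; many hits fall short of the cut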
Bead autofluor: counter-screen for toxin protease inhibitors: compound fluorescence; compound autofluorescence counterscreen, microsphere flow cytometry; stronger effect = higher value; actives 3.1% (n = 360,000); AID 624483; fluorescence intensity (test concentration not listed);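 active = at least 3 SD above the mean of all compounds, about 16000 in these data; inconclusive = too few beads counted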;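 also: 100 nL of 1 mM stock went into each well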
PrP 5UTR inh: inhibition of PrP 5' UTR reporter expression. AID 488862. inhibition, % (no concentration beside the values). cell-based PrP 5' UTR mRNA reporter, plate reader. actives 0.35% (n = 340,000);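 active = every replicate at 50% or more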;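 also: 0 = median of the neutral control wells; tested in H4 reporter cells; numbers are from one replicate; inactives centre near -14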
Mtb hypoxia inh growth: further read-out of Mtb hypoxia inh, marked with its call; growth inhibition, %; measured here: M. tuberculosis growth (absorbance);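 0% = vehicle and 100% = reference antibiotic; read after six days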
An asterisk follows results filed as active; ? = inconclusive; nt = not tested or not shown.

Start of the data: the first 6 records, ahead of the listing:
SMILES | BJeLR viability | ugtP null kill | RN4220 kill | Mtb hypoxia inh | Mtb hypoxia inh growth | Bead autofluor | PrP 5UTR inh
CC(C(=O)NC1CCCCC1)N(Cc1ccccc1)C(=O)c1snc(C(N)=O)c1N (stereo not given) | -13 | 4 | -3.3 | -9 | 0 | 5759 | -24
Cc1c(NC(=O)c2ccc(COc3ccc4ccccc4c3)o2)c(=O)n(-c2ccccc2)n1C | -6 | 5 | 2.6 | 6 | 12 | 10795 | -18
COc1ccc(-n2c(=O)[nH]c3ccccc3c2=O)cc1 | 2 | 0 | -1.9 | 9 | 5 | ? | -7
O=C1c2ccccc2S(=O)(=O)c2cc(C(=O)N3CCC(N4CCCC4)CC3)ccc21 | 2 | -2 | -0.6 | -10 | 0 | 3602 | -5
Cc1ccc[n+](CC(=O)Nc2ccc(N(C)C)cc2)c1 | -2 | 7 | 0.6 | 14 | 1 | 3716 | -22
Cc1[nH]nc2c1C1(CCOC1C)C(C#N)=C(N)O2 (stereo not given) | -1 | 0 | 0.6 | 14 | 0 | 7908 | -38

All compounds of this part, from the start:
SMILES | BJeLR viability | ugtP null kill | RN4220 kill | Mtb hypoxia inh | Mtb hypoxia inh growth | Bead autofluor | PrP 5UTR inh
CC(C(=O)NC1CCCCC1)N(Cc1ccccc1)C(=O)c1snc(C(N)=O)c1N (stereo not given) | -13 | 4 | -3.3 | -9 | 0 | 5759 | -24
Cc1c(NC(=O)c2ccc(COc3ccc4ccccc4c3)o2)c(=O)n(-c2ccccc2)n1C | -6 | 5 | 2.6 | 6 | 12 | 10795 | -18
COc1ccc(-n2c(=O)[nH]c3ccccc3c2=O)cc1 | 2 | 0 | -1.9 | 9 | 5 | ? | -7
O=C1c2ccccc2S(=O)(=O)c2cc(C(=O)N3CCC(N4CCCC4)CC3)ccc21 | 2 | -2 | -0.6 | -10 | 0 | 3602 | -5
Cc1ccc[n+](CC(=O)Nc2ccc(N(C)C)cc2)c1 | -2 | 7 | 0.6 | 14 | 1 | 3716 | -22
Cc1[nH]nc2c1C1(CCOC1C)C(C#N)=C(N)O2 (stereo not given) | -1 | 0 | 0.6 | 14 | 0 | 7908 | -38
COc1ccc(NC(=O)CSc2nc3ccc(OC)cc3[nH]2)cc1 | 3 | 4 | 15 | 3 | 6 | 3514 | -7
FC(F)(F)c1ccccc1CN1CCN(C2CCCCCC2)CC1 | -8 | 5 | 2.3 | 6 | 22 | 2508 | 8
CCOc1cccc(-c2nn3c(-c4cc(C)[nH]n4)nnc3s2)c1 | -7 | -3 | 14 | nt | nt | 2315 | -25
COc1ccccc1NC(=O)Cn1nnc(-c2ccccc2NC(=O)c2ccco2)n1 | 32 | -3 | -14 | 10 | 1 | 2476 | -34
CC(=O)N1CCC(C(=O)NCCOc2ccc(C)cc2)CC1 | -3 | 6 | 0.1 | -3 | 6 | 3053 | -17
Cc1cc(C(=O)N/N=C/c2cccc([N+](=O)[O-])c2)c2ccccc2n1 | 0 | nt | nt | nt | nt | 2002 | -4
Cc1cc(C)n(C(=O)CCCn2cc([N+](=O)[O-])cn2)n1 | 0 | 5 | 0.5 | 9 | 0 | 3227 | -19
Cc1c(C=O)c2ccccc2n1CC(=O)NC(C)c1ccccc1 (stereo not given) | 7 | 6 | 2.0 | 2 | 2 | 4788 | -30
O=[N+]([O-])/C(C(Cl)=C(Cl)Cl)=C(\Sc1ccccc1)N1CCCCC1 | 1 | -1 | 2.6 | -8 | 5 | 2547 | -27
CC(Oc1ccc(Br)cc1)C(=O)NCc1ccccn1 (stereo not given) | 2 | -2 | 2.8 | 7 | 2 | 3817 | -1
CSc1ccc(C=NNC(=O)CN2CCN(Cc3ccccc3)CC2)cc1 | nt | 0 | 1.6 | 1 | 4 | nt | nt
Cc1cccc(NC(=O)NC(C)CCc2ccccc2)c1 (stereo not given) | 1 | 8 | -4.2 | 3 | -2 | 2106 | -12
Cc1ccc(C(=O)N2CCc3ccccc32)cc1 | 3 | 13 | 7.7 | 7 | 4 | 8048 | -57
O=C(O)c1ccc(-n2cc(C(=O)c3ccccc3O)cn2)cc1 | -6 | 1 | 0.0 | 5 | -3 | 3157 | -22
O=C(O)/C(=C/c1ccc(Cl)c([N+](=O)[O-])c1)c1ccc(S(=O)(=O)N2CCCCC2)s1 | nt | -6 | 4.2 | 3 | -1 | 3911 | -43
CC(C)N(C(=O)CSc1nc2ccccc2n1Cc1ccccc1F)C(C)C | -2 | 5 | -0.1 | 7 | 5 | 4434 | -1
CCOc1cc(C=NNc2nn3cnnc3c3ccccc23)ccc1O | nt | -4 | -0.3 | -12 | -4 | nt | nt
NS(=O)(=O)c1ccc(CCNC(=O)CC(NC(=O)c2ccccc2Cl)c2ccccc2)cc1 (stereo not given) | 2 | 0 | -1.4 | 5 | 26 | 5929 | -7
COc1cccc(N2CCN(CC(=O)C34CC5CC(CC(C5)C3)C4)CC2)c1 | -7 | -5 | 2.5 | 3 | -1 | 3742 | -6
CCN(C[C@H]1N[C@@](C)(C(=O)OC)[C@H]2C(=O)N(Cc3ccccc3)C(=O)[C@@H]12)C(=O)Nc1ccc(OC)cc1 | nt | -1 | 2.2 | -7 | 2 | 3804 | -12
CC(OC(=O)c1nsc(Cl)c1Cl)C(=O)NCc1ccc2c(c1)OCO2 (stereo not given) | 18 | 10 | 4.4 | 2 | 6 | 10320 | -24
Cc1c(NC(=O)C(C)C)cccc1-c1nc2ncccc2o1 | -2 | 0 | 1.1 | 12 | 16 | 4089 | -10
O=C(NCC1CCCO1)c1ccc(S(=O)(=O)Nc2ccc(F)cc2)cc1 (stereo not given) | nt | 0 | 2.6 | -3 | 17 | 4992 | -2
Cc1ccccc1NC(=O)CSc1nnc(C)c2ccccc12 | -2 | 10 | 3.6 | 16 | 9 | 4024 | -12
CC1=Nc2ccccc2N=C(NC(=O)CSC(=S)N2CCN(C)CC2)C1c1ccccc1 (stereo not given) | 0 | 2 | 4.7 | 10 | 12 | 3116 | -25
CC(=O)N(c1ccccc1)c1ccc([N+](=O)[O-])cc1[N+](=O)[O-] | 2 | -4 | 12 | 3 | 8 | 2591 | -12
COc1ccc(C(=O)N/N=C\c2ccc(OC)c(COc3ccccc3Br)c2)c(OC)c1 | -7 | nt | nt | nt | nt | ? | -8
COc1cc(CNCc2ccco2)ccc1OCc1ccccc1 | -5 | 6 | 3.2 | 15 | 10 | 4256 | -28
Cc1ccccc1C(=O)N1CCC(n2nccc2NC(=O)CCOc2ccccc2)CC1 | -4 | -5 | -1.4 | -8 | -3 | 4960 | -3
COc1cc(C2C3=C(CC(C)(C)CC3=O)N(C)C3=C2C(=O)CC(C)(C)C3)ccc1O | -1 | 12 | 0.7 | -1 | -3 | nt | -3
O=C(/C=C/c1ccccc1)NNC(=O)c1cccs1 | 15 | 6 | 2.6 | 6 | 2 | 3862 | -20
COc1ccc2c(c1)[nH]c1c(=O)n(/N=C/c3ccc(OC)c(COc4ccccn4)c3)cnc12 | 12 | nt | nt | nt | nt | 7809 | -21
CCOc1ccc(S(=O)(=O)NCc2ccc3c(c2)OCO3)cc1C | 5 | 8 | 4.9 | -4 | 6 | 3304 | -8
CCC(C)Sc1ccc(C2C3C(=O)N(C)C(=O)C3[C@]3(C(=O)OC)CCCCN23)cc1 (stereo not given in full) | nt | -24 | 4.6 | 15 | 8 | nt | nt
CCN(CC)S(=O)(=O)c1cccc(C(=O)NN=Cc2ccc(OC)c(O)c2)c1 | nt | 0 | 0.8 | 4 | 2 | nt | nt
O=C(CS(=O)(=O)c1ccccc1)Nc1ccc(Br)cn1 | 15 | 9 | 5.1 | 3 | 5 | 6856 | -28
O=C(CSc1nnnn1-c1cccnc1)Nc1ccccc1F | -2 | 3 | 2.8 | 4 | 8 | 5556 | 0
O=C(COc1ccc(Br)cc1CNCCc1ccccc1)NCc1ccccc1 | -9 | 6 | -21 | 1 | 9 | 3790 | -14
Cc1cccc(C(=O)OCC(=O)N2CCCCCC2)c1C | nt | -2 | 1.2 | 1 | 8 | 3866 | -82
CCN(CC)S(=O)(=O)c1ccc2oc(SCC3CN=C(c4ccc(OC)cc4)S3)nc2c1 (stereo not given) | 0 | 10 | 9.8 | 3 | -1 | 4622 | -25
CCCCOc1ccc(C(CC(=O)NC)C(=O)O)cc1 (stereo not given) | -3 | 6 | 2.0 | 20 | 9 | 9613 | -22
O=C(Cc1n[nH]c(=O)[nH]c1=O)N/N=C/c1cccc(Cl)c1 | -9 | nt | nt | nt | nt | 3329 | -7
CN(C)c1ccc(/C=[N+](\[O-])C2SC(=S)N(C)C2(C)C)cc1 (stereo not given) | 1 | 3 | -1.3 | 3 | 5 | 4085 | 2
COc1cccc(-c2ncc3ccccc3c2COC(=O)CCCC(=O)O)c1 | nt | -6 | 1.0 | -17 | -10 | 3998 | -6
COc1ccc(OC)c(S(=O)(=O)NCCS(=O)(=O)N2CCN(c3ccccc3)CC2)c1 | 0 | 1 | 1.7 | -1 | 6 | 5124 | -29
CCOC(=O)C1(Cc2ccccc2C(F)(F)F)CCN(C2CCSC2)CC1 (stereo not given) | -4 | 6 | 7.2 | 1 | 4 | 2290 | -28
CC1(C)Cc2ccccc2/C(=C/C(=O)c2ccccc2)N1 | 1 | 37 | 7.4 | 17 | 7 | 3333 | -15
O=C(CCc1c[nH]c2ccccc12)Nc1ccc(S(=O)(=O)Nc2ncccn2)cc1 | 13 | 1 | 1.3 | 12 | 7 | 4182 | -5
Clc1ccc(-n2ncc3c(NCc4ccccn4)ncnc32)cc1 | 2 | -2 | -1.8 | 5 | 9 | 19639* | -31
CCCSc1nsc(NC(=O)c2cccnc2OCC)n1 | 11 | -3 | 5.8 | 14 | 7 | 3106 | -5
Cc1cccc(Nc2ccc([N+](=O)[O-])cc2C(=O)O)c1 | 6 | -2 | 18 | 14 | 1 | 2069 | -28
CCOC(=O)C(C)(C)C(=O)C(C)(C)C(O)c1ccccn1 (stereo not given) | 0 | 0 | 5.3 | 3 | 4 | 10161 | nt
Cc1cnc(C(=O)OCC(=O)N(Cc2ccccc2)C(C)(C)C)cn1 | nt | 3 | 1.9 | 2 | 4 | 3357 | -12
Cc1cccn2c(CN3CCCC(c4ccccc4)C3)c(C(=O)N3CCOCC3)nc12 (stereo not given) | 5 | -2 | 1.0 | -6 | -1 | 2404 | -27
Next results:
SMILES | BJeLR viability | ugtP null kill | RN4220 kill | Mtb hypoxia inh | Mtb hypoxia inh growth | Bead autofluor | PrP 5UTR inh
CC1=C(C(=O)Nc2ccccc2)C(c2ccc(N(C)C)cc2)NC(=O)N1 (stereo not given) | 3 | 3 | 0.8 | nt | nt | 3059 | -9
CCOC(=O)c1sc(NC(=O)Cc2ccccc2OC)nc1C | 0 | 11 | 5.9 | 7 | -3 | nt | -33
Cc1ccc(OCc2nnc(SC3CCc4ccccc4C3=O)n2C)cc1 (stereo not given) | 8 | -1 | 5.4 | 1 | 7 | 1968 | -11
CC(=O)NC(Cc1ccccc1)C(=O)N1CCN(C(=O)c2ccco2)CC1 (stereo not given) | -7 | 6 | 2.0 | 6 | 1 | 8153 | -19
CCC1(c2ccc(Cl)cc2)NC(=O)N(CC(=O)NCc2ccc(F)cc2)C1=O (stereo not given) | 4 | 2 | -1.6 | 3 | 13 | 3661 | -16
COc1ccc(C(=O)N2CCN(c3ncccn3)CC2)cc1S(=O)(=O)N1CCOCC1 | nt | 6 | 3.9 | 23 | 12 | 3857 | -14
COc1cc2c(cc1OC)C(COc1cc(C)cc(C)c1)N(C(C)=O)CC2 (stereo not given) | 2 | -3 | 0.7 | 7 | -2 | 6060 | -9
O=C1N/C(=C/c2cccs2)C(=O)N1Cc1ccccc1F | -3 | 2 | 2.5 | 15 | 3 | 2291 | -14
COc1ccc(C2CC(=O)C=C(NCc3ccccc3)C2)cc1 (stereo not given) | 3 | 4 | 4.3 | -16 | 6 | 5251 | -30
COc1cc(NC(=S)N2CCCCC2C)cc(OC)c1OC (stereo not given) | -11 | 11 | -0.3 | -3 | 1 | 2508 | -6
CN(C)c1ccc(/C=N/n2cnn(Cc3ccccc3Cl)c2=S)cc1 | -2 | nt | nt | nt | nt | 3401 | -21
CCCOc1ccc(C=NNc2ccccc2[N+](=O)[O-])c(O)c1 | nt | 8 | 4.9 | 13 | 5 | nt | nt
Cc1ccc(-c2cc(C(=O)NCc3ccccn3)no2)cc1 | -19 | -3 | 9.2 | -2 | 11 | 9803 | 6

Compound activity: PubChem, several laboratories
